TRPML1 ag – agonists of human TRPML1 channel; Q9GZU1; TRPML1-expressing cells, Ca2+ dye fluorescence, FDSS; host cell line not named in the record; reference of the full effect not given here; activation, % (concentration not given with the values); 410,000 tested, 0.12% active; AID 624414; in the data active = activation above about 50%; inconclusive = about 30% to 50%; inactive = below about 30%; note: 0% is about no effect; the text of the record puts the active cut at 80%
Target sequence (Q9GZU1 whole entry, looked up): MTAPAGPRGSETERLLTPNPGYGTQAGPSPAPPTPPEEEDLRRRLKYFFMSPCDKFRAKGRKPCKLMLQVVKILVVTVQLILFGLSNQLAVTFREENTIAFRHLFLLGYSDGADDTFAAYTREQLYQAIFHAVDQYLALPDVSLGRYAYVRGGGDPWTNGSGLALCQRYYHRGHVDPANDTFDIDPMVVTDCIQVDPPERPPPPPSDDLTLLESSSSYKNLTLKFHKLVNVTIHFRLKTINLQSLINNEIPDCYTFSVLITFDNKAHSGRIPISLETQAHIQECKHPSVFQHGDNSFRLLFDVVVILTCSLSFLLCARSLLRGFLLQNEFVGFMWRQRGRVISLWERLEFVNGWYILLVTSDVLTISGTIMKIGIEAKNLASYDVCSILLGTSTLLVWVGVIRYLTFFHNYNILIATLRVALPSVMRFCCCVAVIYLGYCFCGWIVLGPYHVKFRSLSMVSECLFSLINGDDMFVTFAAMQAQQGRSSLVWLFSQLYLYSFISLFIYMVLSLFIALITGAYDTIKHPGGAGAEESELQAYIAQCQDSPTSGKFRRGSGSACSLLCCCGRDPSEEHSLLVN
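Calcium fluorescence on an FDSS kinetic reader gave the read-out. Tet-induced TRPML1-DL cells were plated overnight, dye-loaded (Ca8 with quencher, 45-90 min, room temperature, dark), then read 110 s after compound addition, and again 110 s after 4uM final 54-4 (EC80).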
Six1-Eya2 blk – inhibitors of human Six1/Eya2 interaction | Q15475+O00167 | AlphaScreen GST-Six1/His-Eya2 binding, biochemical; hits give low values; control for the full effect not named in the record | activity change, % (concentration not given with the values) | 360,000 tested, 0.56% active | AID 651725; in the data active = activity change below about -65%; inconclusive = about -30% to -65%; inactive = above about -30%; note: % is set by controls: 0 for no effect and ±100 for the full control effect
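AlphaScreen luminescence read after one hour at 37 °C in darkness. Pin-transferred compounds met GST-Six1 and His-Eya2 protein (5X stock 250 nM/500 nM) plus glutathione donor and Ni-chelate acceptor beads (5X, 50 ug/mL).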
CtBP-E1A blk – inhibitors of CtBP/E1A interaction; AlphaScreen GST-E1A/His-CtBP binding, 1536-well; hits give low values; control for the full effect not named in the record; activity change, % (test concentration not listed); 340,000 tested, 0.49% active; in the data active means activity change below about -65%; inconclusive means about -30% to -65%; inactive means above about -30%; note: % is set by controls: 0 for no effect and ±100 for the full control effect; compound concentration not given in the record
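AlphaScreen with 125 nM GST-E1A and 125 nM His-CtBP (5X stocks) in Tris pH 8.0, 300 mM NaCl, BSA, Tween 20, TCEP. Compounds preincubated 2 h at 37 deg C, then glutathione donor/nickel acceptor beads added for 1 h at 37 deg C in dark.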
TRPV1 PAM – potentiators of human vanilloid receptor 1 (TRPV1); Q8NER1; TRPV1-expressing cells, Fluo-8 calcium influx, capsaicin EC20 potentiation; host cell line not named in the record; control for the full effect not named in the record; potentiation, % at 8.33 µM; 320,000 tested, 0.02% active; AID 540277; active means potentiation above 80%; inconclusive means 30% to 80%; inactive means below 30%; note: 0% is about no effect
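Cells expressing TRPV1 were dye-loaded with Fluo-8 and read kinetically: 10 s baseline, 3 min after compound (agonist portion), then 2 min after EC20 capsaicin (allosteric enhancer portion). Calcium-bound dye fluorescence at 480/520 nm.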
TRPML1 blocker – blocks the human TRPML1 channel. AID 624415. TRPML1-inducible cells, Ca2+ dye fluorescence, FDSS; hits give low values; inhibition of EC80 agonist-evoked calcium signal. activity change, negative = inhibition, % (concentration not given with the values). 390,000 tested, 0.02% active; in the data active means activity change below about -50%; inconclusive means about -30% to -50%; inactive means above about -30%;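 note: stimulus is agonist 54-4 at its EC80 concentration; % is set by controls: 0 for no effect and ±100 for the full control effect; compound concentration not given in the record; the text of the record puts the active cut at -80%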
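TRPML1-DL cells, Tet-induced overnight (~16 h, 37 °C) at 1,500 cells/well, were loaded with Ca8 no-wash dye plus quencher for 45-90 min at room temperature. Compounds were pinned during FDSS kinetic reading; agonist 54-4 at EC80 (4 uM final) then added.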
D2 PAM – potentiates the human D2 dopamine receptor allosterically | P14416 | DiscoveRx D2 beta-arrestin cells, luminescence, 90 min; 100% = 57 uM dopamine signal | potentiation, % (concentration not given with the values) | 360,000 tested, 0.23% active | AID 624464; active = potentiation of 50% or more; inconclusive = 30% to 50%; inactive = 30% or less;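 note: compound concentration not given in the record; tested on top of an EC20 dose of dopamine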
Target sequence (P14416 whole entry, looked up): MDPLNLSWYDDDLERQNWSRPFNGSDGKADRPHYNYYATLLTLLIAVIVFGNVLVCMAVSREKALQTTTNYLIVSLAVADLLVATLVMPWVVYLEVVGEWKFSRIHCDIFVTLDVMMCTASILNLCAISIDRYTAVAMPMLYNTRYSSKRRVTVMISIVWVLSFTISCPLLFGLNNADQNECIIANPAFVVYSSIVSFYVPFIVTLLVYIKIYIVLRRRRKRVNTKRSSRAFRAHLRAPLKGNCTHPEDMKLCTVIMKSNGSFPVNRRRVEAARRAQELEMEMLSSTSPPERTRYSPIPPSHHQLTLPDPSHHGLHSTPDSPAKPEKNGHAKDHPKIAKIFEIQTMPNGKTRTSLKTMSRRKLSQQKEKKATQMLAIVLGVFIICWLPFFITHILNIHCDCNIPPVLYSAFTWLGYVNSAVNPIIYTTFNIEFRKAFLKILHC
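PathHunter D2 cells, attached overnight at 37 deg C, received compound in DMSO plus dopamine at EC20 (50 nM final) for 90 min at 37 deg C. Beta-arrestin recruitment was read as luminescence after 1 h with detection reagent at ambient temperature.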
The depositor's hits bear a star; ? = inconclusive; . = no result given; & = joins results of further samples.

No.	Compound	D2 PAM	CtBP-E1A blk	TRPV1 PAM	TRPML1 blocker	Six1-Eya2 blk	TRPML1 ag
1	O=c1c2c3c(sc2n2cnnc2n1-c1ccccc1)N(Cc1ccccc1)CCC3	-8.6	-10.3	3.8	-12.3	-0.4	4.8
2	O=C(c1c(O)c2ccccc2oc1=O)C1CCC1	26.2	4.8	8.1	-7.9	7.1	-1.5
3	O=C(NCc1ccccc1)c1cc(C2CCCN(C(=O)CCCc3ccccc3)C2)on1 (configuration not stated)	0.9	1.4	.	.	-1.1	0.1
4	O=C(CSc1ccc(Cl)cc1)NNC(=O)c1ccncc1	-12.4	2.6	9.6	-11.9	3.7	0.1
5	CSCC[C@H](NC(=O)N1CCn2c1nc1ccccc12)C(=O)NCc1ccco1	1.5	-2.8	2.7	-8.2	-4.8	0.7
6	Fc1ccc(Nc2nnns2)cc1	-4.4	-0.7	1.6	6.3	8.0	0.1
7	CCc1nc(SCC(=O)N2CCCC2)c2c(=O)n(C)c(=O)n(C)c2n1	6.3	11.8	-30.6	-6.4	-3.0	0.4
8	N#Cc1ccc(CN2CCN(C(=O)CNS(=O)(=O)c3ccc4c(c3)OCCCO4)CC2)cc1	-5.2	.	0.2	-12.8	10.5	0.1
9	O=C1CSC(=S)N1/N=C/c1cc(Br)c(O)c(Br)c1	1.4	?	-11.4	-13.3	?	58.9*
10	Cc1nc2sc(C(c3cccs3)N3CCN(c4ccccc4)CC3)c(O)n2n1 (configuration not stated)	-4.9	-8.9	-3.3	9.2	-0.4	0.1
11	Cc1ccc(S(=O)(=O)N2CCOCC2)cc1C(=O)OC1CCOC1=O (configuration not stated)	-24.7	9.0	10.3	-4.8	-3.5	-0.1
12	CC(=O)Nc1ccc(NC(=O)c2cccc(S(=O)(=O)N(C)C3CCCCC3)c2)cc1	0.5	.	-10.2	-0.7	-10.6	-0.3
13	COCc1nnc(NC(=O)CC(C)c2ccccc2)s1 (configuration not stated)	8.9	4.8	8.3	2.5	3.7	1.3
14	CCNC(=O)COC(=O)/C=C/c1cccs1	-8.7	-12.3	1.7	26.0	2.4	3.8
15	CC(C)CC1C(C#N)=C(N)Oc2n[nH]c(-c3ccccc3)c21 (configuration not stated)	7.5	-1.8	3.0	9.6	-0.6	0.9
16	O=C(CN1CCN(S(=O)(=O)c2ccccc2)CC1)N1CCCCC1	-9.5	-0.5	-2.0	34.1	0.8	0.2
17	COC(=O)c1[nH]c2cccc(C)c2c1NC(=O)CN1CCCc2ccccc21	-5.9	23.3	?	-1.9	15.8	3.6
18	COc1ccc(-c2cc(-c3nnc(COC(=O)C4CC4)o3)c3ccccc3n2)cc1OC	-12.1	35.8	-4.4	2.9	25.8	1.1
19	COc1cc(C2C(C#N)=C(SC)NC3=C2C(=O)CCC3)ccc1O (configuration not stated)	0.0	0.3	9.4	14.3	5.2	-0.3
20	CCNc1nc(Cl)nc(NNC(=O)C(C)Oc2ccccc2)n1 (configuration not stated)	-4.3	-9.0	3.5	2.5	7.7	0.5
21	COc1cccc(NC(=O)COC(=O)CCSc2ccccc2)c1	-30.1	11.6	.	-3.4	-4.4	0.6
22	COc1ccc(-c2cc(C(=O)Nc3ccc(Cl)cc3Cl)c3ccccc3n2)cc1OC	-10.1	-1.5	5.3	1.6	1.7	1.4
23	N#Cc1cc(S(=O)(=O)c2ccc(Cl)cc2)c(N)[nH]c1=O	1.8	5.9	-12.2	6.6	2.7	1.0
24	COc1ccc(CCNC(=O)c2ccn[nH]2)cc1OC	?	4.0	-14.5	3.7	-0.4	-0.4
25	NS(=O)(=O)c1ccc(NC(=S)NCc2cccs2)cc1	-0.9	.	6.9	46.9	0.7	0.3
26	CN1CCN(C(=O)c2ccc3c(c2)N(Cc2cccc(Cl)c2)C(=O)c2ccccc2S3(=O)=O)CC1	-35.0	1.2	-10.7	0.9&-0.1	-0.2	0.3&0.7
27	C=CCN(CC=C)C(=S)NC(=O)c1ccc(OC)cc1	-8.9	-15.4	6.6	-8.1	13.0	-0.4
28	CCc1cccc(NC(=O)C2CCN(S(=O)(=O)c3ccc4c(c3)NC(=O)CO4)CC2)c1	-9.6	.	29.4	-15.4	-1.7	0.8
29	CCCn1c(N)c(N2CCCCC2)c(=O)n(CC(=O)Nc2ccccc2)c1=O	-14.9	-3.7	-6.6	1.5	2.6	-0.2
30	O=C(Nc1ccccc1)c1ccc(Cn2cc(C(F)(F)F)ccc2=O)cc1	-14.8	-3.9	-6.1	3.4	-0.4	-0.7
31	CN1CCC(=NNC(=O)C(=O)Nc2ccccc2)CC1	2.8	7.7	21.2	9.3	2.1	0.2
32	CC(C)=CCc1c(O)c(CC=C(C)C)c2c(c1O)C(=O)CC(c1ccc(O)cc1)O2 (configuration not stated)	-4.0	3.8	-7.8	-2.8	-7.9	-0.1
33	O=C(Cn1cc(/C=N/NC(=O)c2ccccc2Br)c2ccccc21)Nc1ccc(F)cc1	-0.6	1.3	?	-9.5	-7.8	1.7
34	Cc1ccc(C)c(S(=O)(=O)N2CCN(C(=O)c3cc(S(=O)(=O)NCc4ccccc4)ccc3C)CC2)c1	-5.5	-13.5	-7.5	-3.5	-9.3	1.9
35	CCC1(C)Nc2ccccc2C(=O)N1O (configuration not stated)	0.9	5.2	-3.2	13.1	-0.4	0.6
36	COc1ccc(NC(=O)CCN2C(=O)c3ccccc3C2=O)cc1	12.2	.	5.5	.	-0.1	.
37	Cc1cccc(C(=O)OCC(=O)NC(C)C2CC3CCC2C3)c1O (configuration not stated)	-5.5	.	.	-6.1	5.6	0.5
38	O=C(COc1ccc(F)cc1)Nc1cc(S(=O)(=O)N2CCCCC2)ccc1N1CCCCC1	-11.9	0.0	3.3	-0.8	-1.7	0.8
39	O=C(O)CCCNC(=O)c1nn(Cc2ccccc2)c(=O)c2ccccc12	4.3	7.1	2.9	-3.7	-5.6	0.8
40	COc1ccccc1C(=O)n1nc(-c2ccco2)nc1N	-8.8	4.2	-5.7	5.2	1.8	-0.7
41	COc1ccc(C(=O)Nc2cc(C)nn2-c2ccc(F)cc2)cc1	-1.1	7.2	10.3	-20.0	1.2	-0.5
42	Cc1cccc(CSc2ncnc3c2cnn3Cc2ccccc2)c1	-10.2	70.6	9.8	1.2	64.0	0.9
43	OCC1(Cc2ccccc2C(F)(F)F)CCN(Cc2ccccc2)CC1	-17.0	4.2	-13.4	-10.3	-10.8	-0.2
44	Cc1ccc(OCCC(=O)OCC(=O)C(C)(C)C)cc1	-13.4	5.9	-15.0	-6.7	10.2	-1.0
45	CS(=O)(=O)N1CCN(c2ccc(NC(=O)c3ccc(-c4ccc(Cl)cc4)o3)cc2)CC1	3.7	-0.2	-10.8	-10.4	3.9	0.9
46	CCOc1cc(/C=N/NC(=O)C(N)=O)cc(Br)c1O	-4.7	-19.2	15.9	-6.8	-12.4	2.7
47	COc1ccc(CN2CCNC(=O)C2CC(=O)NCCC2=CCCCC2)cc1OC (configuration not stated)	-7.1	5.3	2.5	7.0	3.2	-0.7
48	Cc1ccc(C(=O)Nc2nnc(C)s2)cc1	-2.5	1.2	-3.7	8.3	6.7	1.3
49	Cc1ccc(C)c(NC(=O)CCN2CCOCC2)c1	-5.5	0.0	-8.4	5.4	-2.6	0.0
50	CC(NC(=O)CN1C(=O)NC2(CCCC2)C1=O)c1ccc(Cl)cc1Cl (configuration not stated)	-8.7	1.3	.	2.1	0.9	1.1
51	Cc1cccc(N2CN=C3SCC(=O)N3C2)c1	-4.1	-0.4	2.4	-5.5	-3.1	0.9
52	COc1ccc(CN2C(=O)CS(=O)CC2=O)cc1OC	4.7	-1.1	.	4.8	6.0	-0.6
53	CC(C)(C)C(=O)O/N=C1/C(=O)N(c2ccccc2)c2ccccc21	-18.8	-6.0	-0.4	1.3	0.0	0.7
54	CCCCn1c(N)c(N(CCOC)C(=O)COC(=O)CCOc2ccccc2)c(=O)[nH]c1=O	15.5	3.4	-30.2	13.8	5.3	0.4
55	CCOc1cc(N2C(=O)CC3CS(=O)(=O)CC32)c(OCC)cc1NC(=O)c1ccccc1 (configuration not stated)	1.3	-0.4	1.8	-4.1	7.7	-1.2
56	CCc1nc2ccc(C(=O)NCCCN3CCCC3=O)cn2c1N(CC)C(=O)NCCc1ccccc1	-11.1	0.0	.	.	18.4	0.0
57	COc1ccc(OC)c(NC(=O)C2CCCN(S(=O)(=O)c3cccc4cccnc34)C2)c1 (configuration not stated)	2.8	-9.5	.	-3.6	-5.8	0.1
58	CCOC(=O)CN(C(=O)Cn1nnc(-c2ccc(C)cc2)n1)C(CC)C(=O)NC1CCCC1 (configuration not stated)	-0.2	43.8	11.8	2.1	17.6	0.3
59	C[C@H](Nc1ccc(C(F)(F)F)cc1[N+](=O)[O-])C(=O)O	-11.1	.	-0.2	-3.8	1.0	0.5
60	Cn1c(Cl)c(/C=N/OC(=O)c2ccccc2Cl)c2ccccc21	10.5	1.9	-0.9	32.5	7.6	0.5

The listing continues:
No.	Compound	D2 PAM	CtBP-E1A blk	TRPV1 PAM	TRPML1 blocker	Six1-Eya2 blk	TRPML1 ag
61	Cc1cc(Cl)c(S(=O)(=O)Nc2ccc3c(c2)OCCO3)cc1OCC(N)=O	-16.2	1.4	-13.9	7.5	3.2	2.3
62	COCCCNc1cc(C)nc2ccccc12	-22.4	3.7	2.8	-0.5	2.0	0.0
63	COc1ccc(C)cc1NC(=O)Nc1cccc(C)c1	-8.0	4.6	-3.2	8.7	0.1	0.2
64	Cc1ccc(-c2csc3ncnc(Nc4ccc(C(=O)O)cc4)c23)cc1	-7.2	-19.9	-3.4	5.4&-18.1	30.0	1.0&1.6
65	COc1ccc(/C=C2\SC(=S)N(NS(=O)(=O)c3ccc(C)cc3)C2=O)c(OC)c1	-6.1	-10.9	-1.0	-17.2	10.1	2.0
66	CC1CCCN(S(=O)(=O)c2ccc(NC(=O)Cc3ccc(S(=O)(=O)N4CCOCC4)s3)cc2)C1 (configuration not stated)	?	-24.4	14.3	3.1	-5.6	2.5
67	CCOC(=O)C1CCN(C(=O)NC23CC4CC(CC(C4)C2)C3)CC1	-3.8	25.6	-5.9	-12.2	2.4	-0.4
68	CCOC(=O)c1c(CN2CCCCC2)n(C)c2cc(Br)c(O)c(CN(C)C)c12	-5.9	0.3	.	7.8	-8.6	-1.2

Arranged by count of non-hydrogen atoms (rising): 4 of the compounds above
No.	Compound	D2 PAM	CtBP-E1A blk	TRPV1 PAM	TRPML1 blocker	Six1-Eya2 blk	TRPML1 ag
64	Cc1ccc(-c2csc3ncnc(Nc4ccc(C(=O)O)cc4)c23)cc1	-7.2	-19.9	-3.4	5.4&-18.1	30.0	1.0&1.6
68	CCOC(=O)c1c(CN2CCCCC2)n(C)c2cc(Br)c(O)c(CN(C)C)c12	-5.9	0.3	.	7.8	-8.6	-1.2
65	COc1ccc(/C=C2\SC(=S)N(NS(=O)(=O)c3ccc(C)cc3)C2=O)c(OC)c1	-6.1	-10.9	-1.0	-17.2	10.1	2.0
66	CC1CCCN(S(=O)(=O)c2ccc(NC(=O)Cc3ccc(S(=O)(=O)N4CCOCC4)s3)cc2)C1 (configuration not stated)	?	-24.4	14.3	3.1	-5.6	2.5
